# Assay outcomes as filed in PubChem BioAssay.
# Arbovirus inh = antivirals against arbovirus infection, primary screen, cell-based, full library, 10K replicate subset; 200,000 compounds, 0.37% hits; AID 1251, 2008; arbovirus infection cell-based antiviral screen; inhibition, % at 10 µM;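 active = inhibition from about 30%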;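 also: bluetongue infection of BSR cells; cell survival read as ATP light after 72 h; 0% = infected wells without compound and 100% = uninfected wells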
# YopH PTP inh = YopH tyrosine phosphatase inhibitors, primary screen, biochemical, fluorescence Ex485/Em525; YopH tyrosine phosphatase [Yersinia enterocolitica]; inhibition, %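 (about 10 µM by stock and volumes)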; 140,000 compounds, 0.16% hits; AID 898, 2007;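 active = inhibition of 50% or more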;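 also: controls were vehicle for no effect and minimum signal wells for full effect; inactives centre near -20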
# Mtb H37Rv = M. tuberculosis H37Rv growth inhibitors, H37Rv strain (AID 1626); M. tuberculosis H37Rv growth inhibition; higher % means a stronger effect; inhibition, % at 10 µM, or IC50 in µM where a hit was titrated; 220,000 compounds, 0.95% hits;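 active = confirmed in a dose series; inconclusive = inhibition above 80% but not taken into the dose series; inactive = below 80% or under 30% at every dose of the series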;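 also: bacteria incubated seven days before Alamar blue readout; 0% = bacteria only wells and 100% = bacteria with antibiotic wells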
# RecA intein inh = Mtb RecA intein splicing inhibitors, primary screen, biochemical, fluorescence, HTS | 290,000 compounds, 0.75% hits | AID 2221, 2009 | inhibition, %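 (about 9 µM by stock and volumes)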 | cell-free RecA intein splicing | Protein RecA (Mycobacterium tuberculosis (strain ATCC 25618 / H37Rv)), P9WHJ3; in the data active = inhibition above about 30%; inconclusive = no clear call, values can overlap the other calls;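 also: 0% = vehicle wells and 100% = reference inhibitor control wells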
# Target sequence (P9WHJ3 whole entry, looked up): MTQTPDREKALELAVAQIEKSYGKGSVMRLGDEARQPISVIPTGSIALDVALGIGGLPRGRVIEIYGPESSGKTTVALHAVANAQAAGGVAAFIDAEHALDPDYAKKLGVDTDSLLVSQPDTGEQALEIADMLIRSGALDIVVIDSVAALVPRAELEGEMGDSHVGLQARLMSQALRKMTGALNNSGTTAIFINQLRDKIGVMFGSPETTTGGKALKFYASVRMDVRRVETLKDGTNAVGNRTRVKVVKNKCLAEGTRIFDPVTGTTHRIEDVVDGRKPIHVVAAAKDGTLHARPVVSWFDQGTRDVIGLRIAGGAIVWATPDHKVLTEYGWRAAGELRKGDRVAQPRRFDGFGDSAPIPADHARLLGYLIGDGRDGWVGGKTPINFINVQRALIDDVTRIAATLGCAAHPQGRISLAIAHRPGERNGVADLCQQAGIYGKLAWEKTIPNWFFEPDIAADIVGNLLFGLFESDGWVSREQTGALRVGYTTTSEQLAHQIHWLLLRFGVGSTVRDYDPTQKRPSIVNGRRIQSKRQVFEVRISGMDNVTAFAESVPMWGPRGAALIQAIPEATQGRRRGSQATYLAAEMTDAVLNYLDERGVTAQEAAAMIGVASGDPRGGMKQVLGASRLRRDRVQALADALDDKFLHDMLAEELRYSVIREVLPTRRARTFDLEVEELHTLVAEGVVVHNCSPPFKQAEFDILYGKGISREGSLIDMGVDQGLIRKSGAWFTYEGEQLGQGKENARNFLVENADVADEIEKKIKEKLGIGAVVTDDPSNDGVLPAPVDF
# Mtb bLac sens = beta-lactam sensitization of Mtb H37Rv, H37Rv; inhibition, % at 25 µM; M. tuberculosis H37Rv growth with meropenem, percent inhibition; hits of this screen are not shown here; 330,000 compounds, 0.27% hits; AID 434955, 2010;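 active = about 74% or more and at least 40 points above the plate without the antibiotic, then above 30% in a dose series; inconclusive = first-round hits that could not be retested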;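 also: growth measured after seven days incubation then overnight dye step; 0% = bacteria only wells and 100% = bacteria with antibiotic; twin plates without the antibiotic show which effects depend on it; some results filed as inactive read as strong as hits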
# Arbovirus inh repeat = second read-out of Arbovirus inh, no call of its own (marks repeat the call); inhibition, %; measured here: 10K subset replicate screen; many hits read low in the repeat;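 first of two repeat runs on a subset; 0% = infected and 100% = uninfected wells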
# * marks the source's active call; other numbers are inactive results; ? = inconclusive; / = not tested or not shown; & = joins results of further samples.
SMILES,Arbovirus inh,YopH PTP inh,Mtb H37Rv,RecA intein inh,Mtb bLac sens,others
CC(C)(C)NC(=O)CSc1nnnn1C(C)(C)C,3,-19,3%,-0.5,1,
O=C(Oc1ccc(-c2nnco2)cc1)N1CCOCC1,-2,-33,-2%,-2.7,4,
Cc1cccc(C)c1OCC(=O)NNC(=O)Nc1ccc(Cl)cc1,13,-10,0%,1.0,4,
COc1ccc(CNC(=O)CCSCc2cccc(Cl)c2)c(OC)c1,-10,-3,-5%,3.5,3,
Cc1cccc(NC(=O)NNC(=O)COc2ccc(Cl)cc2)c1,-3,/,-5%,-0.9,-8,
O=C(/C=C/c1ccc([N+](=O)[O-])cc1)N1CCN(Cc2ccccc2)CC1,/,/,/,1.3,-6,
COc1ccc(NC(=O)CC2CCCC2)cc1OC,/,/,/,-0.2,0,
O=C(c1ccccc1)c1ccccc1C(=O)c1ccccc1,/,/,-12%,13&3.5,0&0,
CC(C)Oc1ccc(N2CC(C(=O)OCC(=O)NCc3ccccc3)CC2=O)cc1 (centres undefined),3,-24,-4%,1.4,1,
Cc1cccc(NC(=O)CSc2nc(COc3ccccc3)nc3ccccc23)c1C,-6,-35,6%,-0.4,7,
COc1ccc(OCC(=O)Nc2cccc(C(=O)Nc3ccccc3C(=O)O)c2)cc1,15,-44,8%,-0.8,14,
O=C(CSc1nnc(SCc2cccc3ccccc23)s1)N/N=C/c1c[nH]c2ccccc12,-10,-10,10%,0.9,6,
CCCCN(CCCNC(=O)C1CCCN(S(=O)(=O)CC)C1)Cc1ccccc1 (centres undefined),7,-26,5%,-1.3,-18,
CC(C)NC(=O)/C(C#N)=C/c1ccc(N(C)C)o1,/,/,-9%,-8.5,54,
CCCCCn1c(=O)c(C(=O)OCC)c(O)c2ccccc21,2,-38,-3%,-3.2,30,
Cc1oc(-c2cccc(Cl)c2)nc1CN1CCC(C(=O)N2CCN(c3ccccn3)CC2)CC1,-2,/,/,/,19,
Cc1oc2ccc(O)c(CN(C)C)c2c1C(=O)c1ccccc1,6,/,-1%,/,-7,
COc1cc(/C=N/NC(=O)c2cccc3ccccc23)ccc1OCC(N)=O,/,/,/,-0.6,4,
O=C(CNC(=O)c1ccccc1O)N/N=C/c1cc(Br)ccc1OC(=O)/C=C/c1ccco1,-19,/,1%,/,1,
CC(C)[C@H](NC(=O)N1c2ccccc2NC(=O)[C@@H]1C(C)C)C(=O)N1CCC[C@H]1C(=O)O,/,/,/,0.3,-3,
O=C(CN(c1ccc([N+](=O)[O-])cc1)S(=O)(=O)c1ccccc1)N1CCCCC1,/,/,/,2.9,3,
COc1ccc(Cl)cc1N1CCN(CCNC(=O)Nc2ccccc2C)CC1,-10,-59,/,-0.3,8,
Cc1ccccc1C(=O)NCC(=O)NNC(=O)CCN1CCN(c2ccccc2)CC1,/,/,/,1.3,-15,
O=C(CN1CC=C(c2ccccc2)CC1)NC(=O)NC1CCCCC1,0,/,-2%,-7.2,-8,
CCOCCCn1cnc2c(c1=O)c1nc3ccccc3nc1n2-c1ccccc1,-2,-34,0%,-5.4,2,

# Next section (two carried over from the part before).
SMILES,Arbovirus inh,YopH PTP inh,Mtb H37Rv,RecA intein inh,Mtb bLac sens,others
O=C(CN1CC=C(c2ccccc2)CC1)NC(=O)NC1CCCCC1,0,/,-2%,-7.2,-8,
CCOCCCn1cnc2c(c1=O)c1nc3ccccc3nc1n2-c1ccccc1,-2,-34,0%,-5.4,2,
COc1ccccc1N1CCN(/N=C/c2cc(OC)c(O)c(OC)c2)CC1,3,-27,3%,-6.9,1,
Nc1nnc(SCc2coc(-c3ccc(Cl)cc3)n2)s1,2,-15,-9%,0.4,-11,
CC1(C)CN(c2cccc(Br)c2)C1=O,-5,/,-1%,-5.7,3,
Cc1ccc(S(=O)(=O)CC(=O)Nc2nc(C(C)(C)C)cs2)cc1,/,/,/,2.4,-12,
O=C(Cn1c(=O)[nH]c2ccccc2c1=O)Nc1ccc2c(c1)OCO2,/,/,/,2.3,4,
Cc1cc(C)c2c(CN3CCN(CCO)CC3)cc(=O)oc2c1,5,-44,-12%,0.0,-2,
Cc1nc2sc3c(NCc4ccco4)ncnc3c2c2c1COC(C)(C)C2,-4,-22,7%,0.5,7,
COc1ccc(/C(N)=N/OC(=O)CCCN2C(=O)c3ccccc3C2=O)cc1OC,0,/,-2%,1.1,-2,
CC(=O)c1ccc(OCC(O)CN2CCCC(C)C2)cc1 (centres undefined),-6,-26,7%,1.1,-9,Arbovirus inh repeat=-4
C=CCC(Nc1ccccc1)C12C=CC(O1)C(C(=O)OC)=C2C(=O)OC (centres undefined),-1,-1,4%,-1.2,82,
CCOC(=O)Cc1c(C)nc2c(-c3ccccc3)c(C)[nH]n2c1=O,-18,-39,0%,-1.2,51,
O=C(NCc1cccs1)C1CCC(CNS(=O)(=O)c2cccc3nsnc23)CC1 (centres undefined),-6,-30,-2%,-0.6,-1,
Cc1cccc(C(=O)Nc2cccc(-c3ccc4nncn4n3)c2)c1,14,/,-3%,-2.5,-4,
Cc1ccc2c(c1)OC(=O)CC2c1ccccc1 (centres undefined),0,-9,-17%,2.5,-4,
CSCC(=O)N1CCCC(C(=O)c2cc(F)ccc2F)C1 (centres undefined),-3,/,0%,-0.7,-7,
Cc1cc(C(=O)NC2CCCc3c2cnn3-c2cccc(C)c2C)no1 (centres undefined),/,/,/,0.6,?,
O=C(CSc1nc2ncccc2[nH]1)NC1CCCC1,/,/,/,-0.1,-4,
Cc1ccc(S(=O)(=O)N2CCCC2)cc1C(=O)NCc1ccccn1,/,/,/,-0.2,-4,
CCOc1ccc(C(=O)NCc2cccs2)cc1,-4,-46,-3%,-2.3,9,
CCCNC(=O)N1CCN(C(c2ccccc2)c2ccccc2)CC1,/,/,/,-0.7,2,
S=C(NCc1cccs1)Nc1ccc(Cl)cc1,18,-34,-3%,5.3,-6,
CNC(=O)C(=O)NCC(c1cccs1)S(=O)(=O)c1ccc(C)cc1 (centres undefined),/,/,/,2.1,-3,
CCOC(=O)c1c(-c2ccccc2)oc2cc(Br)c(O)cc12,/,/,/,-0.2,9,
CCOC(=O)C1(Cc2ccccc2)CCCN(Cc2ccccn2)C1 (centres undefined),1,/,-2%,/,3,
CC(C)CN1CCC(=O)N([C@H](CSc2ccc(Br)cc2)Cc2ccccc2)CC1,/,/,5%,12,0,

# Later entries:
SMILES,Arbovirus inh,YopH PTP inh,Mtb H37Rv,RecA intein inh,Mtb bLac sens,others
CC(=O)O/N=C/c1c(C)c(C=O)n2ccccc12,2,/,-2%,1.6,-1,
COC(=O)c1ccc(N2CCOCC2)c(NC(=O)c2ccc3c(c2)OCO3)c1,/,/,/,-3.2,-4,
CNC(=O)N(O)C1N(/N=C/c2ccccc2O)C(=S)SC1(C)C (centres undefined),/,/,-6%,-8.7,-2,
Cc1nc(SCC(=O)N2CCC(Cc3ccccc3)CC2)[nH]c(=O)c1C,/,/,/,-1.2,-4,
CCOC(=O)C(C)NC(=O)C(NC(=O)C1CCC(CC)CC1)C(C)C (centres undefined),0,-41,1%,1.5,68,
CCOC(=O)c1cccc(NC(=O)CCc2c(C)nc3ncnn3c2C)c1,1,-52,-2%,-2.8,-5,
CCn1c(SC(C)C(=O)Nc2ccc(N3CCOCC3)cc2)nnc1-c1ccco1 (centres undefined),/,/,/,-3.3,-6,
CC#CC#Cc1cccc(=O)o1,/,/,5%,-1.1,15,
COc1ccc(-c2ccc(/C=C3/C(=N)N4C(C)=CSC4=NC3=O)o2)c([N+](=O)[O-])c1,-15,-27,0%,15,?,
O=C(CSc1nnc(CNC(=O)c2ccccc2F)o1)NC1CCCC1,/,/,/,-4.3,-6,
COc1cccc(C2/C(=C(\O)c3ccc4c(c3)OCCO4)C(=O)C(=O)N2Cc2cccnc2)c1 (centres undefined),/,/,/,-1.0,-1,
Cc1nc2c(nnn2Cc2ccccc2)c(=O)n1-c1ccccc1,9,-9,/,1.2,-7,
CCC(C(=O)NC1CCCCCC1)n1nc(C)n2c(cc3occc32)c1=O (centres undefined),/,/,/,2.8,7,
CC(=O)NC(CCCCNC(=S)NC1CCCCC1)C(=O)O (centres undefined),8,/,2%,/,-2,
COc1cccc(NC(=O)N2CCCC(C(=O)NC3CCCCC3C)C2)c1 (centres undefined),/,/,/,-0.6,6,
CC(=O)c1ccc(NS(=O)(=O)c2ccc(N/C=C/C(=O)c3ccc(F)cc3)cc2)cc1,/,/,7%,-22,-2,
O=C(O)c1ccc(/C=N/NC(=O)c2cc(-c3ccc4c5c(cccc35)CC4)n[nH]2)cc1,-18,/,1%,0.6,10,
CC1CCc2cc(F)ccc2N1C(=O)CSc1nnc2c(n1)[nH]c1ccccc12 (centres undefined),-20,-24,3%,0.1,57,
CCOc1ccc(/C=N/NC(=O)c2[nH]ncc2Br)c(O)c1,-17,/,-10%,/,13,
Cc1ccccc1NC(=S)NC1(C)CCS(=O)(=O)C1 (centres undefined),7,-27,-4%,-0.3,9,
Cc1cc(NC(=O)CN2C(=O)NC(C)(CCc3ccccc3)C2=O)no1 (centres undefined),9,/,1%,-1.3,-3,
CCC(C(=O)Nc1ccccc1Cl)n1nc(C)c2c(C)n(-c3ccccc3)nc2c1=O (centres undefined),/,/,/,-1.7,6,
Cc1cc(SCC(=O)OCC(=O)c2c(N)n(C)c(=O)n(C)c2=O)c(C)cc1Br,3,/,-2%,4.0,-15,
COc1ccccc1C(CNC(=O)c1cccc(S(=O)(=O)Nc2ccc(C)cc2)c1)N(C)C (centres undefined),/,/,/,1.6,-3,
O=C(COc1ccc2c3c(c(=O)oc2c1)CCC3)Nc1ccc(CN2CCOCC2)cc1,/,/,/,1.7,11,

# Looked up one by one from the entries so far:
SMILES,Arbovirus inh,YopH PTP inh,Mtb H37Rv,RecA intein inh,Mtb bLac sens,others
CC(=O)c1ccc(NS(=O)(=O)c2ccc(N/C=C/C(=O)c3ccc(F)cc3)cc2)cc1,/,/,7%,-22,-2,
O=C(COc1ccc2c3c(c(=O)oc2c1)CCC3)Nc1ccc(CN2CCOCC2)cc1,/,/,/,1.7,11,
CC1CCc2cc(F)ccc2N1C(=O)CSc1nnc2c(n1)[nH]c1ccccc12 (centres undefined),-20,-24,3%,0.1,57,

# Continuation:
SMILES,Arbovirus inh,YopH PTP inh,Mtb H37Rv,RecA intein inh,Mtb bLac sens,others
Cn1c(N)c(C(=O)CSc2nnnn2-c2ccccc2)c(=O)n(C)c1=O,/,/,-9%,-2.5,-8,
CN(CC(=O)Nc1ccc(F)c(F)c1F)C(=O)C1=COCCO1,/,/,/,4.4,-11,
COc1ccc(Cl)cc1N1CC(c2nc3ccccc3[nH]2)CC1=O (centres undefined),-6,-32,3%,1.5,-4,
COc1cc(OC)nc(Oc2ccccc2C(=O)Oc2ccc(Cl)cc2)n1,5,15,-2%,23,83,
O=S(=O)(c1ccc(OCC(O)CN2CCC(Cc3ccccc3)CC2)cc1)N1CCOCC1 (centres undefined),-9,0,3%,2.8,8,
CC(C)(C)C(O)(CC#CCN1CCCC1)c1ccccc1 (centres undefined),1,/,-4%,0.7,-6,
CCOC(=O)c1cnn(Cc2ccc(C)cc2)c1N,5,/,-2%,7.2,8,
COc1ccccc1-n1c(SCC(=O)Nc2cc(C)on2)nc2c(c1=O)SCC2,-5,/,4%,-0.8,8,
CCCNC(=O)c1ccc(N2CCC3(CC2)CC(c2cccc(Br)c2)=NO3)c(NC(=O)c2ccccc2)c1,/,/,/,0.8,-10,
Cc1ccc(C(=O)N/C(=C\c2cccs2)C(=O)NCCc2ccccn2)cc1C,-6,/,-5%,-3.7,-12,
CC(C)OCCCNC(=O)c1ccncc1,4,-10,1%,0.1,-4,
COc1cccc(CN2CCN(CCc3ccccc3)C(CCO)C2)c1OC (centres undefined),-2,/,5%,0.7,-2,
CCOC(=O)c1ccc(N2CCN(c3ccccc3F)CC2)c(NC(=O)Nc2cccc(OC)c2)c1,20,27,28%,1.9,2,
Cc1ccccc1SCC(=O)OCC(=O)NCCNC(=O)COC(=O)CSc1ccccc1C,/,/,/,2.2,-4,
COc1ccc(NC(=O)NNC(=O)c2cc3ccccc3cc2O)cc1,/,/,/,-16,-13,
COC(=O)C(CCSC)NC(=O)c1cc2c(n(-c3ccccc3)c1=O)CC(C)(C)CC2=O (centres undefined),15,-14,-3%,-0.9,-1,
O=C(CN1C(=O)NC2(CCCC2)C1=O)Nc1ccc(OC(F)(F)F)cc1,/,/,/,0.5,-5,
COc1cc2ccccc2cc1C(=O)N/N=C/c1cccnc1,/,/,/,0.5,78,
Cc1cc(C)c(S(=O)(=O)Nc2ccc3[nH]c(=O)[nH]c3c2)c(C)c1,6,/,5%,-1.7,-9,

# The list is partial (hit frequency here may not be typical).
